# High-throughput results from PubChem.
# HCMV UL50-53 inh: disrupts HCMV UL50-UL53 complex binding. HTRF UL50-UL53 interaction, normalized percent inhibition. inhibition, % (concentration not given with the values). 0.15% of 190,000 active. AID 1918969;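 active = both replicates at 50% or more, plus weaker picks with an unusually low signal ratio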;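 note: stock transfer was 100 nL into about 20 µL; 0% = negative control wells and 100% = wells with untagged competitor protein; inactives centre near -12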
# Sa growth 42C: S. aureus growth inhibition | S. aureus RN4220 growth, OD600, 20 h, 42 °C; hits give low values | relative growth, % (test concentration not listed) | 0.53% of 170,000 active | AID 720641;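 active = growth at 42 °C up to 50% and 20 or more points under that at 30 °C, or under 10% at both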;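 note: 300 nL library stock went into each well; scaled to the means of positive and negative controls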
# GIV-Gai inh: GIV-Galpha-i interaction inhibition; Galpha-i3/FITC-GIV peptide fluorescence polarization, 90 min; hits give low values; scaled: aluminum fluoride 0%, vehicle 100%; P08753; 0.42% of 210,000 active; percent of control (FP), % (test concentration not listed);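 active = replicate mean at 85% of control or lower, very high polarization wells dropped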;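 note: wells of about 15 µL received 100 nL stock; the first replicate is given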
# Target sequence (P08753 whole entry, looked up): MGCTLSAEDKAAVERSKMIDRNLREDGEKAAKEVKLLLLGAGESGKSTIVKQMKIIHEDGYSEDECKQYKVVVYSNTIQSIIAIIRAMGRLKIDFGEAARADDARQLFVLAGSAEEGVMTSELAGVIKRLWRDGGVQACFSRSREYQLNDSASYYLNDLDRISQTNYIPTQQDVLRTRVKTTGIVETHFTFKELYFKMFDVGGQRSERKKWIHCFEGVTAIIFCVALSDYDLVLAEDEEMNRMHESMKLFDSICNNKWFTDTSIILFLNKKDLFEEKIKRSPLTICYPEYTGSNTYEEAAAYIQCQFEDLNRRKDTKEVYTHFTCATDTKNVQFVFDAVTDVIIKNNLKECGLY
# Sa growth 42C second temp: further read-out of Sa growth 42C, marked with its call; relative growth, %; measured here: growth at 30 °C;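 optical density after 20 h as mean of two plates; 100% = untreated growth and lower means inhibition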
# * hit, by the source's call; nt = no result given; & = joins results of further samples.
# Value order – Sa growth 42C	HCMV UL50-53 inh	GIV-Gai inh	Sa growth 42C second temp
CC(C)CCn1c(=O)c2sccc2n2c(SCC(=O)NC3CCCCC3)nnc12
→ nt	-14	102	nt
CCOc1ccc(NC(=O)c2ccc3c(c2)nnn3C2CCCC2)cc1
→ 92	nt	107	96
COC(CNC(=O)C1CCN(Cc2nc(-c3ccc(Cl)cc3)oc2C)CC1)OC
→ 110	nt	108	90
NC(=O)c1ccccc1OCC(=O)N1CCOCC1
→ 110	nt	98	92
CC1CC(OC(=O)CN2CCCCC2)CC(C)(C)C1 (stereo unspecified)
→ 78	nt	103	86
Cc1cc(C)nc(S/C=C/C(=O)c2ccc(Cl)cc2)n1
→ 103	-25	107	91
COC(=O)c1ccc(Cn2nnc3c(=O)[nH]c(C4CCCN(S(=O)(=O)c5ccccc5)C4)nc32)cc1 (stereo unspecified)
→ 105	2	98	103
CCc1ccc(-c2nc3c(C#N)c[nH]n3c2NCCC(C)C)cc1
→ 105	nt	109	93
NC1CCN(C(=O)C2CC2)CC1
→ 91	1	109	98
O=S(=O)(c1ccc2ccccc2c1)N1CCN(Cn2[nH]c(-c3cccs3)nc2=S)CC1
→ 42	-59	nt	50
N=C1S/C(=C\c2cc3c(cc2[N+](=O)[O-])OCO3)C(=O)N1c1ccc(F)cc1
→ nt	-26	108	nt
CCOc1ccccc1Nc1nc2cc(Cl)ccc2o1
→ 118	-3	nt	97
COc1ccccc1-c1cc(C(=O)N2CCCc3ccccc32)no1
→ 98	nt	103	94
FC(F)(F)c1nnc(-c2ccccc2)o1
→ 122	-8	103	97
CC(C)c1ccc(N2CC(C)(C)C2=O)cc1
→ nt	-20	101	nt
O=c1oc(-c2ccccc2)nc2sc3c(c12)CCC3
→ nt	-2	99	nt
CSc1nnc2sc3ccccc3n12
→ 98	-8	104	91
CC(=O)N(C(C)=O)S(=O)(=O)c1ccc(N=NN(C)C)cc1
→ 96	-11	nt	89
C=C(C)Cn1c(SCCC(C)C)nc2c1c(=O)[nH]c(=O)n2C
→ nt	-14	103	nt
c1ccc(C(NCc2cccnc2)(c2ccccc2)c2ccccc2)cc1
→ nt	6&-15	99	nt
CCn1nnc2cc(C(=O)Nc3cccc(Cl)c3C)ccc21
→ 114	nt	102	91
Cc1ccc(-c2nc(C(=O)Nc3ccccn3)c3n2CCCCC3)cc1
→ 114	9	107	90
Cn1c(=O)c2sccc2n2c(CCCC(=O)Nc3ccc(F)c(F)c3)nnc12
→ 90	-110	96	94
CCc1ccccc1NC(=O)C1CCN(c2cnccn2)CC1
→ 99	-9	101	94
CCOC(=O)c1ccc(NC(=S)Nc2cccc(N)n2)cc1
→ 101	-20	102	85
COc1ccc(N2CCN(CCCNC(=S)Nc3c(C)cccc3C)CC2)cc1
→ 114	nt	105	93
Cc1ccc(N2C(=O)C(CC(=O)Nc3ccccc3)N(Cc3ccc4c(c3)OCO4)C2=O)cc1 (stereo unspecified)
→ 107	nt	96	92
O=C(c1ccc(F)cc1)N1CCC(c2nc(-c3ccc(F)cc3)no2)CC1
→ nt	0	100	nt
N#Cc1cc(C#N)c(SCC(=O)N2CCNC2=O)nc1N
→ 88	8	nt	93
CCOC(=O)c1cc(C)n(Cc2cccc(C(F)(F)F)c2)n1
→ 102	-4	99	76
CCCn1c(=O)c2cc(Cl)ccc2n2c(=O)n(CC(=O)Nc3ccc4c(c3)OCO4)nc12
→ nt	9	103	nt
O=C(NCCc1ccc(Cl)cc1)c1cc(=O)[nH]c(=O)[nH]1
→ 105	0	nt	103
CCOC(=O)c1c(C)[nH]c(C)c1S(=O)(=O)N1CCC(C(=O)Nc2ccc(Cl)cc2)CC1
→ nt	-13	101	nt
O=C(NC1(C(F)(F)F)N=C(c2ccccc2)N(Cc2ccccc2)C1=O)c1ccc(F)cc1 (stereo unspecified)
→ 95	-4	105	88
C=CCn1c(SCc2nc3ccccc3[nH]2)nnc1-c1ccccc1
→ 105	-7	103	69
Cc1ccc(S(=O)(=O)N(C)CC(=O)O)cc1
→ 91	-21	101	80
N#CSCc1nc2ccccc2c2nc3ccccc3n12
→ 93	nt	105	84
O=C(CSc1ncccc1C(=O)O)NC12CC3CC(CC(C3)C1)C2
→ 99	-9	nt	98
CC1(C(=O)NC2CCCCC2)Cn2c(cc3ccccc32)C(=O)N1Cc1cccnc1 (stereo unspecified)
→ nt	-28	101	nt
CCn1c(=O)c(=O)[nH]c2cc(C(=O)N3CCN(c4ccccc4O)CC3)ccc21
→ 105	-24	nt	62
COc1ccc(C2OC(=O)c3ccccc3S2)cc1 (stereo unspecified)
→ 79	-7	nt	97
Cc1c(Cl)cccc1NC(=O)Cn1cnc2c1c(=O)n(C)c(=O)n2C
→ nt	-5	101	nt
O=C(NC1CCCCC1)/C(=N\O)c1ccccc1
→ 98	-10	100	70
N#Cc1ccsc1/N=C/c1ccccc1C(F)(F)F
→ nt	-9	108	nt
CCOCCCNCc1ccc(-c2ccc(Cl)cc2)o1
→ nt	-29	105	nt
CCNS(=O)(=O)c1c(C)[nH]c(=O)[nH]c1=O
→ nt	-18	107	nt
N#CC(C#N)(CC(=O)N1CCCc2ccccc21)CC(=O)N1CCCc2ccccc21
→ 92	-6	nt	100
CCOC(=O)c1nc2ccccc2nc1N1CCN(c2ccccn2)CC1
→ nt	-56	94	nt
NC(=O)C1(N2CCCCC2)CCN(C(=O)Nc2ccc(C(F)(F)F)cc2)CC1
→ 99	9	102	90
S=C(NC1CCCCCC1)NC1CC1
→ 100	-2	99	98

# Next results:
# Value order – Sa growth 42C	HCMV UL50-53 inh	GIV-Gai inh	Sa growth 42C second temp
CCc1ccccc1NC(=O)Nc1cc(C(=O)NCc2ccc(C(C)C)cc2)ccc1N1CCCC1
→ 108	nt	99	103
Cc1ccc(-c2ocnc2C(=O)N2CCOCC2)cc1
→ 95	-16	109	86
CCCSc1nsc(NC(=O)/C=C/c2cccs2)n1
→ 79	1	nt	82
CCN(CC)c1ncnc2sc(C(=O)O)c(C)c12
→ nt	-17	113	nt
COC(=O)c1cccc(N2C(=O)C3C4C=CC(C)(O4)C3C2=O)c1 (stereo unspecified)
→ 83	-4	96	82
Cc1[nH]c2ccccc2c1-c1ncc(C(F)(F)F)cc1Cl
→ nt	-15	107	nt
COC(=O)c1ccc(COc2cccc3ccc(N4CCC(C(N)=O)CC4)nc23)cc1
→ nt	-33	100	nt
O=C(CCCOc1ccccc1)NC1CCSC1=O (stereo unspecified)
→ 91	-2	96	92
CC(C)C(O)(C(=O)OC[C@@H]1CCN2CCC[C@@H]12)C(C)O (stereo partly specified)
→ 96	-24	nt	95
CCc1cccc(C)c1NC(=O)c1cc(S(=O)(=O)N2CCCCCC2)cn1C
→ 114	nt	101	91
O=C(CSC1=NCCS1)NC1CCCC1
→ 105	-5	nt	99
Cc1ccc(N2C(=O)c3ccccc3C2(O)c2ncc[nH]2)cc1 (stereo unspecified)
→ 108	-22	100	100
O=C(CN1C(=O)S/C(=C/c2ccc(Cl)cc2)C1=O)N1CCCCCC1
→ 100	-39	nt	81
CCc1ccc(NC(=O)CSc2cn(CC(=O)N3CCOCC3)c3ccccc23)cc1
→ 108	nt	102	87
CO[C@@]1(NC(=O)C(C(=O)O)c2ccc(O)cc2)C(=O)N2C(C(=O)O)=C(CSc3nnnn3C)CO[C@@H]21 (stereo partly specified)
→ 88	-18	nt	90
CCc1nn2c(=O)cc(CSc3nnc(-c4ccc5c(c4)OCO5)o3)nc2s1
→ nt	0	110	nt
CCOC(=O)CCSc1n[nH]c(=S)s1
→ 79	6	99	78
O=c1c2ccccc2c(C=NCc2ccncc2)c(O)n1-c1ccccc1Cl
→ 102	-60	nt	91
CS(=O)(=O)N(CCC#N)Cc1ccc(/C=C2\C(=O)N(c3ccccc3)c3ccccc32)o1
→ 78	15	nt	89
O=S(=O)(c1ccc2ccccc2c1)N1CCN(c2ncnc3sccc23)CC1
→ 87	-2	nt	94
CCc1c(C)nc2ccc(C)cc2c1Cl
→ 103	-7	nt	84
Cc1cc(C(F)F)n2nc(C(=O)Nc3cccc(Cl)c3C)nc2n1
→ 105	-22	97	93
Cc1ccc2oc(-c3ccc(Cl)c(Cl)c3)c(O)c(=O)c2c1
→ 106	-12	109	83
COc1cc(-c2n[nH]c(=O)n2C2CCCCC2)cc(OC)c1OC
→ 108	-37	94	105
COc1cc2[nH]c(=O)n(CCCCCC(=O)N3CCN(c4ccc(Cl)cc4)CC3)c(=O)c2cc1OC
→ 90	6	101	87
Cc1cc(C)cc(NC(=O)C(C)Oc2ccccc2)c1 (stereo unspecified)
→ 96	-18	nt	79
Cc1ccc(NC(=O)c2ccc(CNS(=O)(=O)c3ccc4c(c3)C(C)(C)C(=O)N4C)cc2)cc1
→ 101	nt	109	92
CCc1ccc2oc(C(=O)Nc3cccc(C(F)(F)F)c3)cc(=O)c2c1
→ 106	-18	100	86
CCc1ccccc1OCC(=O)Nc1ccc(S(N)(=O)=O)cc1
→ 101	nt	99	76
O=C(NCc1ccccc1)C1=Cc2sc3c(c2CS1)CCCC3
→ 84	nt	104	44
CCCCCSc1nnc(-c2ccccc2NC(C)=O)c(=O)[nH]1
→ 80	-36	101	86
CCn1c(SCc2ccccc2)nnc1-c1cccnc1
→ 92	-23	98	77
Cc1ccc(NC(=O)Cn2c(-c3cncs3)nc3ccccc32)c(Br)c1
→ 93	-34	99	80
CSc1ccc(S(=O)(=O)NCC2CCCO2)cc1 (stereo unspecified)
→ 111	-7	104	103
O=C(CSC(=S)N1CCCC1)NC1CCCCCC1
→ 95	-16	nt	94
COc1ccc(CN2C(=O)c3ccccc3C2C(=O)NCC2CCCO2)c(OC)c1 (stereo unspecified)
→ 94	-8	101	82
N#CC1=C(SCC(=O)c2ccc(F)cc2)NC2(CCCC2)C(C#N)C1=O (stereo unspecified)
→ 109	-5	nt	31
COC(=O)c1ccccc1NC(=O)C1=C(C)C(=O)OC12CCN(C(C)=O)CC2
→ 102	-2	107	97
CCOC(=O)CC(Nc1nc(N2CCOCC2)nc(N2CCOCC2)n1)c1ccc(C)cc1 (stereo unspecified)
→ 91	-23	nt	85
COCCN(C(=S)Nc1ccc(C(C)C)cc1)C1CCN(C(C)C)CC1
→ 108	nt	102	92
CN(C)CCCOC(=O)c1cnn2c(C(F)(F)F)cc(-c3ccccc3)nc12
→ nt	-95	106	nt
CN(C(=O)Cn1nc(Cc2cccnc2)c2ccccc2c1=O)C1CCCCC1
→ 100	nt	98	85
CC(NC(=O)NCc1ccccc1)c1nc(-c2ccncc2)n[nH]1 (stereo unspecified)
→ 104	8	97	89
Cc1cccc(C=Nc2cccc(O)c2)c1
→ 110	-12	nt	94
Cc1ccccc1C(=O)N(Cc1nc(-c2ccc(Cl)cc2)no1)C(C)C
→ 103	-26	105	87
CN(C)c1c(C(C#N)=C(C#N)C#N)c2ccccc2n1C
→ 62	-7	nt	41
N#Cc1cccc(NC(=O)c2cc3c(s2)-c2ccc(Cl)cc2SC3)c1
→ 102	-4	101	73
Cc1cc(C)cc(C(=O)NCC(=O)N2CCN(c3cccc(Cl)c3)CC2)c1
→ 98	16	nt	99
Cc1cccc(C(=O)Nc2ccc(NC(=O)c3cccs3)cc2)c1
→ 95	nt	106	82
Cc1cccc(NC(N)=O)c1
→ 96	-25	nt	84

# Part of the list above in order of heavy-atom count, high to low:
# Value order – Sa growth 42C	HCMV UL50-53 inh	GIV-Gai inh	Sa growth 42C second temp
Cc1ccccc1C(=O)N(Cc1nc(-c2ccc(Cl)cc2)no1)C(C)C
→ 103	-26	105	87
N#Cc1cccc(NC(=O)c2cc3c(s2)-c2ccc(Cl)cc2SC3)c1
→ 102	-4	101	73
CC(NC(=O)NCc1ccccc1)c1nc(-c2ccncc2)n[nH]1 (stereo unspecified)
→ 104	8	97	89

# Next section
# Value order – Sa growth 42C	HCMV UL50-53 inh	GIV-Gai inh	Sa growth 42C second temp
CS/C(Nc1cccc(Cl)c1Cl)=C(/C#N)C(=O)c1cccs1
→ 46	-27	101	19
COc1ccc(-c2nn(-c3ccc(F)cc3)c3c2cnc2cc4c(cc23)OCO4)cc1
→ 99	nt	102	83
COc1cc2c(cc1OC)CN(C(=O)CSc1nnc3ccc4ccccc4n13)CC2
→ 103	nt	102	93
COc1ccccc1OCC(=O)Nc1sc2c(c1C#N)CCCC2
→ 96	-11	nt	92
COc1ccccc1Cc1nc2ccccc2nc1SCC(=O)N1CCC(C)CC1
→ 96	nt	99	92
Cc1nc2ccc(NC(=O)c3ccc4ncsc4c3)cc2s1
→ 96	-15	106	70
CCN(C(=O)c1cn(CC)c(=O)c2cc(OC)c(OC)cc12)c1ccc(C)c(C)c1
→ 98	14	107	96
CCn1nccc1C1CCCN1C(=O)Nc1cc(C)cc(C)c1 (stereo unspecified)
→ nt	-11	101	nt
O=C(O)CSCc1cn2cc(Cl)ccc2n1
→ 88	-8	nt	102
CCCN1C(=S)N(CCO)C(=O)/C1=C/C=C1/Oc2ccccc2N1CCC(=O)O
→ 145	-116	-20*	104
CCOC(=O)C1C(=O)NC(SCC(=O)OC)=C(C#N)C1c1ccccc1OCC (stereo unspecified)
→ nt	-24	103	nt
O=C(Cc1ccccc1)OCC(=O)N1CCC(Cc2ccccc2)CC1
→ 98	25	nt	99
COC(=O)CC1Oc2ccc(C)cc2NC1=O (stereo unspecified)
→ 92	2&-2	105&103	83
COc1ccc(Cl)cc1NC(=O)CSc1cn(CC(=O)N2CCCCCC2)c2ccccc12
→ 148	nt	105	95
COC(=O)CCC1CCCCC1=O (stereo unspecified)
→ 125	5	105	111
COc1ccc(C2Oc3ccc(Br)cc3C3CC(c4cccs4)=NN32)cc1OC (stereo unspecified)
→ nt	-28	117	nt
